Assay outcomes from PubChem BioAssay.
miR-21 reporter: miR-21 reporter, rising signal; Potency, µM (titrated, usually from 38.3 µM), for inactives: at the top dose reporter change, positive = more light; HeLa miR-21 FLuc reporter, luciferase, 48 h; 340,000 tested, under 10 active; active = well fitted rising curve with a large enough effect; inconclusive = small, poorly fitted or top-dose-only effect; inactive = no such curve, though single readings can be large or run the other way;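 further: % of control where 0% means no effect; miR-21 action dims this reporter so a rising signal means less miR-21 action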
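Using DMEM plus 10% FBS, HeLa miR-21-FLuc cells are incubated with test compounds (final up to about 40uM) for 48 hours; firefly luciferase signal is then imaged following reagent-mediated lysis.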
Rango complex inh: prevents formation of the Rango-importin beta complex; 340,000 compounds, 0.031% hits; Potency, µM (doses to about 92.2 µM), for the others: at the highest dose inhibition of complex formation; Q14974; Rango CFP/YFP FRET sensor + importin beta, 45 min; AID 540263; active = rising FRET ratio curve, often small or poorly fitted; inconclusive = mostly compound fluorescence or quenching in the first reads; inactive = flat curves in all reads;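 further: potency means the concentration at half of the fitted maximal effect; 0% = DMSO wells and 100% = buffer wells lacking importin beta; nearly all actives have a fitted effect of over 15% in size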
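Inhibition scored from the CFP 486 nm/YFP 530 nm FRET ratio 45 min after adding 0.125 microM importin beta to 50 nM Rango biosensor preincubated 5 min with compound (room temperature, PBS with DTT, Tween-20, BSA). No-importin wells as positive control.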
Rango release inh: inhibitors of RanGTP-induced Rango-importin beta complex dissociation; Biochemical FRET Rango-importin beta, RanGTP-induced dissociation; Potency, µM (top dose mostly 46.1 µM), for the others: at the highest dose activity change, negative = inhibition; 340,000 compounds, 0.071% hits; AID 540253; active means falling FRET ratio curve, often poorly fitted, with flat reads before Ran was added; inconclusive means other falling curves, or compound fluorescence or quenching; inactive means flat or rising ratio curve;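 further: potency means the concentration at half of the fitted maximal effect; % of control where 0% means no effect; nearly all actives have a fitted effect of over 45% in size; -100% = wells without RanGTP and RCC1; the record marks most hits as doubtful in a second field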
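Compounds sat 5 min at room temperature with 0.1 uM Rango biosensor plus 0.25 uM importin beta, then FRET pre-read. RanGTP-RCC1 (0.6 uM Ran, 2mM GTP, 0.2 uM RCC1) added for 45 min, and the CFP/YFP post-read measured blocked complex dissociation.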
GLA inh pH 4.5: blocks human alpha-galactosidase A at pH 4.5; purified enzyme, 4-MU-alpha-Gal fluorescence, pH 4.5; activity change, negative = inhibition, % at 105 µM; 230,000 tested, under 10 active; inconclusive = small, poorly fitted or top-dose-only inhibition, or a rising curve; inactive = flat fitted curve, though single readings scatter; no compound was filed as active;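 further: 0% = full activity with enzyme and -100% = basal without enzyme; dose as in the result columns while the protocol names 77 µM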
Target sequence (P06280 whole entry, looked up): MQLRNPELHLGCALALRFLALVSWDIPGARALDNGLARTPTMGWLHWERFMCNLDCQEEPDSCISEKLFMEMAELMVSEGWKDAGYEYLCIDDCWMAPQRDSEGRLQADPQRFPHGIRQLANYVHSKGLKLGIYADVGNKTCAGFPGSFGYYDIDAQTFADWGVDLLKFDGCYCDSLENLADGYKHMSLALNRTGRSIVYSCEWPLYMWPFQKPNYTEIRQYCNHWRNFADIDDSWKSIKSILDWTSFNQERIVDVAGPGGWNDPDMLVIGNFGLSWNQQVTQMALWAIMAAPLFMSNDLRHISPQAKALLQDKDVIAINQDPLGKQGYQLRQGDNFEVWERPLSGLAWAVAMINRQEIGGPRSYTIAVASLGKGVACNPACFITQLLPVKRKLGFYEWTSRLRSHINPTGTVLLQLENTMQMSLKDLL
* marks the source's active call; other numbers are inactive results; ? = inconclusive; . = no result given; & = joins results of further samples. Some of the compounds tested, so the mix of outcomes need not match the whole.

miR-21 reporter	Rango release inh	GLA inh pH 4.5	Rango complex inh	SMILES
1%	1%	.	2.3%	NC(=O)CC(NC(=O)c1ccccc1)c1ccc(N2CCC(N3CCCC3)CC2)c([N+](=O)[O-])c1 (centres undefined)
2%	-9%	.	2.5%	Cn1cc(S(=O)(=O)N2CCCC2)cc1C(=O)Nc1cccc(C(F)(F)F)c1
13%	11%	0	-1.9%	COC(=O)c1ccc(OCC(O)CN(CCO)CC(O)Cn2ccc3ccccc32)cc1 (centres undefined)
-1%	-13%	3	?	CCCC(=O)Nc1nc(C)c(-c2csc(Nc3ccccc3C)n2)s1
-55%	-10%	5	0.8%	O=C(Nc1ccc(N2CCCC2)cc1)c1ccc(Br)o1
-38%	?	1	?	c1cc2c(cc1Nc1nc(-c3ccc4c(c3)OCO4)cs1)OCCO2
.	-6%	.	-1.0%	O=C(CCc1nc(-c2ccc(F)cc2)no1)Nc1cccc(C(=O)NC2CC2)c1
-3%	5%	.	5.7%	CC(=O)c1ccc(N(C(=O)CNC(=O)c2ccco2)C(C(=O)NC2CCCC2)c2ccco2)cc1 (centres undefined)
.	-3%	.	-1.6%	COc1ccc2nc(C)cc(N3CCN(S(=O)(=O)c4ccccc4F)CC3)c2c1
-3%	-1%	6	2.0%	Cc1nc(NC(=O)c2cc(-n3cnnc3)ccc2Cl)ccc1Br
-1%	-5%	-5	-0.3%	CS(=O)(=O)N(C(=O)NC(=O)NC1CCS(=O)(=O)C1)C1CCCCC1 (centres undefined)
.	-2%	.	-2.1%	O=C(CCl)Nc1sccc1C(=O)c1ccccc1
.	-6%	.	-0.5%	CCN(CC)S(=O)(=O)c1ccc(/C=C/C(=O)OCC(=O)NCc2cccs2)cc1
-11%	?	.	?	COc1cccc(/C=C2\C=C(c3ccc(C)cc3)OC2=O)c1OC(C)=O
-3%	-8%	-8	-0.5%	CC(C)(Oc1ccc(Br)cc1)C(=O)N1CCc2ccccc21
-6%	-1%	2	-3.6%	Cc1ccc(CC2CC(=O)N(c3ccc(C)cc3)C2=O)cc1 (centres undefined)
-4%	6%	.	-0.2%	CCN(C(=O)CSc1nnc(COc2ccccc2F)n1N)C1CCS(=O)(=O)C1 (centres undefined)
2%	11%	-4	-0.7%	Cc1csc(NC(=O)CSc2nnc(C)c(=O)n2N)n1
-9%	-22%	-1	?	COc1ccccc1OCc1nnc(SCC(=O)NCc2ccco2)n1Cc1ccco1
-4%	-14%	-4	0.2%	COc1ccc(CC(NC(C)=O)C(=O)NC2CCN(c3c4c(nc5ncnn35)CCC4)CC2)cc1 (centres undefined)
-4%	12%	6	0.6%	COc1ccc(CN2C(=O)c3ccccc3C2=O)cc1C(=O)Nc1ccc(C)cc1C
-16%	4%	4	-1.3%	Cc1[nH]c2ccccc2c1C(=O)CNc1nccs1
0%	1%	6	0.0%	Cc1nnc(N(C)C(=O)c2ccncc2)s1
-12%	-8%	.	-1.4%	CN1CCCN(C(=O)c2cc3c(s2)CCCC3)CC1
.	-4%	.	-0.4%	CC(C)(CCc1ccccn1)C(=O)C(CCc1ccccn1)CCc1ccccn1

An excerpt from above in order of their number in Rango release inh, descending:
miR-21 reporter	Rango release inh	GLA inh pH 4.5	Rango complex inh	SMILES
.	-4%	.	-0.4%	CC(C)(CCc1ccccn1)C(=O)C(CCc1ccccn1)CCc1ccccn1
-55%	-10%	5	0.8%	O=C(Nc1ccc(N2CCCC2)cc1)c1ccc(Br)o1
-9%	-22%	-1	?	COc1ccccc1OCc1nnc(SCC(=O)NCc2ccco2)n1Cc1ccco1

Additional results follow:
miR-21 reporter	Rango release inh	GLA inh pH 4.5	Rango complex inh	SMILES
-1%	3%	.	0.3%	CCn1cc(C(=O)NCCC(=O)OC)c(=O)c2cc3c(cc21)OCO3
3%	-10%	6	0.4%	CC(C)N1CCC(NC(=O)Nc2ccccc2)CC1
-4%	-3%	-3	-2.2%	COc1ccc(S(=O)(=O)N2CCN(C(=O)[C@@H]3CCC(=O)N3C3OC(=O)c4ccccc43)CC2)cc1 (some centres undefined)
-2%	-8%	-25	-1.0%	CN1C(=O)N(C)C(NC(=O)Nc2ccccc2)C1NC(=O)Nc1ccccc1 (centres undefined)
0%	5%	.	-3.4%	Cc1ccc(S(=O)(=O)CCC(=O)Nc2nc(-c3cccnc3)cs2)cc1
.	-14%	.	3.1%	CCc1ccc(N2CC(C(=O)Nc3ccc(S(=O)(=O)N4CCOCC4)cc3)CC2=O)cc1 (centres undefined)
.	3%	.	-2.9%	O=C1C(=C2CCc3ccccc32)Cc2ccccc21
-7%	0%	5	7.5%	CCOc1ccccc1C1NC(=O)NC(C)=C1C(=O)OCc1ccco1 (centres undefined)
-7%	-5%	.	3.0%	C#CCOC(=O)c1cc(Cl)c(=O)n(Cc2ccc(Cl)cc2Cl)c1
-38%	-1%	.	-5.1%	CC1(C)CC(NC(=O)C2CCC(=O)N(Cc3ccccc3F)C2)CC(C)(C)C1 (centres undefined)
-2%&5%	19%	-25	-0.7%	CCOC(=O)c1nnn(CC(=O)NC(=O)Nc2cccc(CC)c2)c1C(=O)OCC
-8%	-19%	0	-4.5%	Brc1c(CSc2nncn2-c2ccccc2)nc2sccn12
1%	23%	0	0.9%	CCCC(=O)Nc1ccc(C(=O)NNC(=S)NC(=O)c2cccs2)cc1
-6%	1%	.	3.1%	CN(CC(=O)Nc1ccccc1C(F)(F)F)C(=O)c1cc([N+](=O)[O-])ccc1N1CCOCC1
.	-10%	.	?	CCN(CC(=O)Nc1ccccc1OC)C(=O)c1ccccc1Sc1ccccc1C#N
-9%	2%	-2	0.1%	CCn1nc(C)c(NC(=O)/C=C/c2ccc(OC)c(COc3ccc(Br)cc3)c2)c1C
-8%	2%	1	3.0%	Cc1c(C(=O)Nc2ccncc2)oc2ccccc12
-8%	?	1	?	CC(C)OC(=O)/C(C#N)=C/c1ccc(-c2ccc(SC(F)F)cc2)o1
0%	0%	-9	-0.7%	CCC(C)NC(=O)C(NS(=O)(=O)c1cccc2nsnc12)c1ccccc1 (centres undefined)
0%	5%	4	-1.2%	N#Cc1c(SCC(N)=O)nc2c(c1-c1ccc(O)cc1)CCCC2
-2%	17%	0	-0.4%	O=C(COc1cccc(Br)c1)N/N=C1\CCCc2ccccc21
-1%	-3%	3	-0.6%	O=C(O)CN1C(=O)SC(Nc2ccccc2C(=O)O)C1=O (centres undefined)
-6%	1%	1	3.3%	O=S(=O)(N/N=C\c1cn(-c2ccccc2)nc1-c1ccccc1)c1ccccc1
.	?	.	?	Cc1cc(CC(=O)O)c2oc(-c3ccoc3)cc(=O)c2c1
1%	1%	10	1.9%	CC(NC(=O)OCc1ccccc1)C(=O)OCN1C(=O)c2ccccc2C1=O (centres undefined)

Sorted by number of heavy atoms (falling): six of the compounds above
miR-21 reporter	Rango release inh	GLA inh pH 4.5	Rango complex inh	SMILES
-6%	1%	1	3.3%	O=S(=O)(N/N=C\c1cn(-c2ccccc2)nc1-c1ccccc1)c1ccccc1
0%	5%	.	-3.4%	Cc1ccc(S(=O)(=O)CCC(=O)Nc2nc(-c3cccnc3)cs2)cc1
-8%	?	1	?	CC(C)OC(=O)/C(C#N)=C/c1ccc(-c2ccc(SC(F)F)cc2)o1
0%	5%	4	-1.2%	N#Cc1c(SCC(N)=O)nc2c(c1-c1ccc(O)cc1)CCCC2
-8%	-19%	0	-4.5%	Brc1c(CSc2nncn2-c2ccccc2)nc2sccn12
-1%	-3%	3	-0.6%	O=C(O)CN1C(=O)SC(Nc2ccccc2C(=O)O)C1=O (centres undefined)

The list goes on.
miR-21 reporter	Rango release inh	GLA inh pH 4.5	Rango complex inh	SMILES
-5%	-3%	.	1.9%	COc1ccc(S(=O)(=O)N2CCNCC2)cc1
0%	-5%	.	-0.1%	COCCCn1c(=O)c2sccc2n2c(CCCC(=O)NCC3CCCO3)nnc12 (centres undefined)
3%	-1%	6	4.2%	CCOC(=O)c1[nH]c(C)c(/C=N/O)c1C
1%	-8%	-4	0.5%	COc1ccc(CN2CCN(C(=O)CC(C)C)CC2)c2ccccc12
-2%	-9%	.	-2.4%	Cc1ccccc1C1c2[nH]c3ccccc3c2C[C@H]2C(=O)N(C3CC3)CC(=O)N12 (some centres undefined)
-5%	4%	.	-1.5%	Cc1ccc(CNc2cnccn2)s1
.	7%	.	-0.5%	O=C(OCc1ccccc1F)c1cc([N+](=O)[O-])ccc1N1CCOCC1
-1%	1%	-6	1.1%	COc1ccc(-c2[nH]ncc2/C=C(\C#N)C(=O)NC2CC2)cc1
0%	-7%	-12	4.7%	COc1ccc(Cn2nnnc2C(c2cccs2)N2CCSCC2)cc1 (centres undefined)
-14%	5%	.	4.6%	Cc1ccc(C2CC2/C(=N/O)c2ccc(F)cc2)cc1 (centres undefined)
.	9%	.	0.6%	Cc1ccc(OC(C)C(=O)N(C)c2ccccc2)c([N+](=O)[O-])n1 (centres undefined)
-52%	1%	-11	0.7%	CSC1=N/C(=C\c2cccnc2)C(=O)N1c1ccccc1
-4%	-23%	-6	?	C=CCn1c(=S)[nH]c2scc(-c3ccco3)c2c1=O
-2%	-9%	-1	-0.5%	O=C(NCC1CCCO1)c1cccc(F)c1 (centres undefined)
-5%	1%	-9	-1.5%	COc1ccc(N2C(=O)Cc3c2nc(N)c(C#N)c3N)cc1
.	-1%	.	-1.5%	COCCN(Cc1nnc(-c2cccs2)o1)C(=O)c1cccc(S(=O)(=O)N2CCOCC2)c1
-10%	-3%	.	6.9%	O=[N+]([O-])c1cccnc1N1CCN(Cc2ccc3c(c2)OCO3)CC1
-6%	14%	.	1.0%	O=C1C(=O)N(CCCN2CCOCC2)C(c2ccc(Cl)cc2)/C1=C(/O)c1ccc(F)cc1 (centres undefined)
0%	10%	-2	-0.7%	CC1(N2CCOCC2)C(=O)c2ccccc2C1=O
-55%	0%	.	-1.8%	C/C(Cc1ccccc1)=N\NC(=O)c1ccccn1
0%	-9%	-6	-1.8%	Cc1ccc(NC(=O)C[n+]2ccn(C3=C([O-])c4ccccc4C3=O)c2)cc1
0%	-1%	.	-1.8%	Brc1cccc(CNCc2ccncc2)c1
-11%	-6%	0	4.5%	Cc1ccc(C2CCN(C(=S)NC(C)C)C2)cc1 (centres undefined)
-1%	1%	2	-0.6%	Cc1ccc(S(=O)(=O)N2CCN(S(=O)(=O)c3ccccc3)C2)cc1
.	3%	.	-0.5%	CC(=O)NS(=O)(=O)c1ccc(NC(=O)c2cccc3ccccc23)cc1
-4%	.	-4	.	COc1ccc(/C(O)=C2/C(=O)C(=O)N(CCCN(C)C)C2c2ccccc2)cc1Cl (centres undefined)
-14%	12%	1	-5.1%	Cc1cccc(NC(=S)NC2CCCC2)c1
10%	-11%	-6	-2.8%	C=CCn1c(SCC(=O)N2CC(=O)Nc3ccccc32)nc2scc(-c3ccccc3)c2c1=O
-5%	-3%	.	-2.5%	O=Cc1c(Nc2ccccc2Cl)nc2ccccn2c1=O
0%	-3%	4	4.7%	CCOC(=O)C(NC(=O)NCc1ccc(OC)cc1)(OCC)C(F)(F)F (centres undefined)
-1%	0%	1	0.6%	CC(CN1CCCC1)OC(=O)COc1ccccc1 (centres undefined)
-6%	-6%	-1	-2.5%	CCCCC(=O)Nc1ccc(C(=O)NNC(=S)NC(=O)c2cccs2)cc1
-6%	8%	-3	-2.2%	CC(C)CC(=O)Nc1ccc(-c2cn3ccsc3n2)cc1
-44%	-19%	-2	-0.1%	Cc1c(C(=O)Nc2ccccc2)sc2nc[nH]c(=O)c12
-4%	20%	-4	-1.4%	O=C(CSc1nc2ccccc2n1CC(=O)N1CCOCC1)N1CCCC1
-1%	1%	1	6.1%	CC(C)[C@H](NC(=O)c1ccccc1)C(=O)OCC(=O)NCCc1ccc(F)cc1
-39%	12%	11	7.9%	COc1cc(/C=N/N2CCOCC2)ccc1OCc1ccccc1
-6%	15%	.	-0.4%	COc1ccc(Cl)cc1NC(=O)c1cnccn1
